LANA-H2A inh = blockers of LANA interaction with H2A/H2B – biochemical, FP readout, HTS, primary screen | Protein LANA1 (Human herpesvirus 8 type P (isolate GK18)), Q9QR71 | cell-free LANA-H2A/H2B peptide, fluorescence polarization | inhibition, % (concentration not given with the values) | actives 0.6% (n = 320,000); in the data active = inhibition mostly above about 10%, no sharp cut-off; inactive = mostly below about 6.7%;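 also: stock transfer was 7.5 nL into about 10 µL; 0% = median of vehicle wells and 100% = median of positive control wells; one replicate is shown; the record names a cut of 25% in any replicate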
Target sequence (Q9QR71 whole entry, looked up): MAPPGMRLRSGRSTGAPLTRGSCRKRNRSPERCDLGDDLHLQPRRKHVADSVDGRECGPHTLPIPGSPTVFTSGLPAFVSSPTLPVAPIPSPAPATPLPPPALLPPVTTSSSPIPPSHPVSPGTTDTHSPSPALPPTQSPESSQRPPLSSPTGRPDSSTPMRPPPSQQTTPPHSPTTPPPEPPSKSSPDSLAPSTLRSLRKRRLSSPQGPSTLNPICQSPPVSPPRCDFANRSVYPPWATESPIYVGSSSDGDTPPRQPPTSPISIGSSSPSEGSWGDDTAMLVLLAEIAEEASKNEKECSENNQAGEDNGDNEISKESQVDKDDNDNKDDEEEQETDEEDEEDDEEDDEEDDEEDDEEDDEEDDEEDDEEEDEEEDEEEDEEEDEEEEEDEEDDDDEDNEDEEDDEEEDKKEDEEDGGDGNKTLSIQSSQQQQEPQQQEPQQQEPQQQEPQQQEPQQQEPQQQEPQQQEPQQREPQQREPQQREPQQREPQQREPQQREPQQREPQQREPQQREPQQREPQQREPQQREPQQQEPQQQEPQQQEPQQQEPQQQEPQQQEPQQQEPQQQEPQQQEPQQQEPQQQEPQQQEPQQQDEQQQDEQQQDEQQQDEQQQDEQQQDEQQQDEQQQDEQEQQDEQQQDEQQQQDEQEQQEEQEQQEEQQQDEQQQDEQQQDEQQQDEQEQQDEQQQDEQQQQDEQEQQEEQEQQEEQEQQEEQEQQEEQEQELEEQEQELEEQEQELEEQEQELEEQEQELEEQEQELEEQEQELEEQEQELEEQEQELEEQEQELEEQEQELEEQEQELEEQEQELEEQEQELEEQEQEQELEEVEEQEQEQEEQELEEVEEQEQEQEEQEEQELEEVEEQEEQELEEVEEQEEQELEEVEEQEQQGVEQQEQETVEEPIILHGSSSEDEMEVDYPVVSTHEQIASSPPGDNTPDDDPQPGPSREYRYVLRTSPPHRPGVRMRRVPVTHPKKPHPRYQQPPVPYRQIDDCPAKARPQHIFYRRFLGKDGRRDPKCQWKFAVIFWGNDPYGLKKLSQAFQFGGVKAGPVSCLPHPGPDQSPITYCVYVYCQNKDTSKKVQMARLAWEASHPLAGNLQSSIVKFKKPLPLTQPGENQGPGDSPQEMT
Calb FLC = C. albicans growth inhibition with fluconazole, primary screen, CaCi-2 strain, Alamar Blue fluorescence | C. albicans CaCi-2 (fluconazole-resistant clinical isolate) + fluconazole, 48 h | actives 0.57% (n = 300,000) | growth inhibition, % (no concentration beside the values);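 active = most replicates above 75%; inconclusive = exactly half above 75%; inactive = most below 75%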;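 also: all wells also contain fluconazole at 8 µg/ml as a sub-toxic cotreatment; 0% = median of DMSO wells and 100% = median of geldanamycin control wells; wells of about 8 µL received 7.5 nL stock; the first replicate is given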
AF4-AF9 inh = inhibitors of AF4 peptide binding to AF9, primary screen, biochemical, AlphaScreen, biotin-AF4 peptide, FLAG-AF9, single point | Protein AF-9 (Homo sapiens), P42568 | inhibition, % at 10 µM | actives 0.47% (n = 350,000) | AID 651704, 2012;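 active = every replicate reaching a set inhibition limit, whatever the replicate mean, cut at about 25% in these data; inconclusive = mean inhibition reaches that limit but some replicates miss it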;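 also: 0% = plate neutral control median and 100% = total signal loss; the record names both 10 and 1 µM as test concentration; the first replicate is given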
Beta cell apopt = inhibitors of cytokine-induced beta cell apoptosis, primary screen, luminescence; actives 0.8% (n = 300,000); INS-1E cytokine-induced death, ATP luminescence, 48 h; percent of positive-control rescue, neutral wells zero; protection from apoptosis, % (concentration not given with the values);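 active = all replicates at 75% or more, or half of them and the mean; inconclusive = half reach 75% but not the mean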;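 also: 0% = cytokine-treated negative control wells and 100% = positive control rescue; higher means more ATP so stronger rescue from cytokine killing; wells of about 40 µL received 100 nL stock; the first replicate is given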
A1 inh = caspase 3/7 activation in MEF A1-2A-BIM cells, primary screen, A1 inhibitor project, cell-based, luminescence, HTS; actives 0.066% (n = 330,000); caspase activation, % (test concentration not listed); Caspase-Glo 3/7 luminescence, 3 h; percent of clofoctol response, vehicle zero;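 active = over half of replicate activation scores above 10%, or exactly half above 10 with the replicate mean above 10; inconclusive = replicate mean below 10 yet half the replicates above 10; inactive = over half of replicates below 10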;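 also: wells of about 30 µL received 50 nL stock; many hits fall short of the cut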
Vif A3G = inhibitors of Vif binding to APOBEC3G peptide, primary screen, biochemical, TR-FRET, GST-Vif 1-94, biotin-A3G peptide, dose response retest (AID 1117319); Virion infectivity factor (Human immunodeficiency virus type 1 group M subtype B (isolate …; TR-FRET GST-Vif / biotin-A3G peptide binding; higher % means a stronger effect; test concentration not given here; strong numbers were not always called active; one-dose inhibition, %; IC50 in µM for titrated hits; actives 0.57% (n = 260,000);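 active = above the screen mean plus three standard deviations and confirmed in dose response; inconclusive = results disagree or hit not tested in dose response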;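 also: Vif residues 1-94 fused to GST binding biotinylated APOBEC3G peptide 110-148; 0% = full assay without inhibitor and 100% = GST in place of GST-Vif; retest series ran down from 100 µM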
RanGTP-Imp inh = inhibitors of RanGTP-importin-beta interaction, primary screen, biochemical, FRET, CFP-Ran, YFP-importin-beta, homogeneous. AID 2216, 2009. Ran GTPase (GTP-bound) - importin-beta complex. actives 1.1% (n = 300,000). inhibition, % (concentration not given with the values). cell-free CFP-Ran/YFP-importin-beta FRET ratio;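 active = most replicates above 15%; inconclusive = exactly half above 15%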;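 also: 0% = DMSO wells and 100% = Ran loaded with GDP instead of GTP; wells of about 40 µL received 100 nL stock; the first replicate is given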
T cruzi repl = inhibitors of intracellular T. cruzi growth, primary screen, luminescence, NIH3T3 host cells; inhibition, % (no concentration beside the values); actives 1.4% (n = 300,000); T. cruzi beta-gal in NIH3T3, 90 h;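 active = mean inhibition across valid replicates above about 55%, limit read from the data; inconclusive = mean below that limit but half or more replicates reach it; inactive = mean below it, under half of replicates reach it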;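 also: signal also drops with host cell toxicity which is not excluded here; 0% = plate median of DMSO wells and 100% = zero luminescence signal; higher percent means less beta-gal luminescence so fewer parasites; stock transfer was 50 nL into about 50 µL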
Numbers without * were called inactive; ? = inconclusive; . = no result given; & = joins results of further samples.

SMILES	LANA-H2A inh	Calb FLC	AF4-AF9 inh	Beta cell apopt	A1 inh	Vif A3G	RanGTP-Imp inh	T cruzi repl
CCc1cccc2c(C#N)cn(CCOc3ccccc3OC)c12	-5.1	0	.	-4	0.0	33%	1.2	14
CC(C)COC(=O)OCN1C(=O)CN(CCN2CC(=O)N(COC(=O)OCC(C)C)C(=O)C2)CC1=O	3.4	.	-3.6	6	1.6	.	.	.
CCN1CCN(c2cc(-c3ccccc3)nc3cc(-c4cccc(F)c4)nn23)CC1	0.1	36	.	8	0.0	3%	17*	36
COc1ccc(-c2nc3c(c(=O)[nH]c(=O)n3Cc3ccccc3)n2Cc2ccccc2)cc1	-8.6	21	.	4	0.4	-1%	1.0	61*
CCC(C)NC(=S)N1CCN(Cc2ccc3c(c2)OCO3)CC1 (stereo not given)	0.9	6	-1.2	-5	0.6	0%	1.0	13
CCN(CC)CC(=O)Nc1nc(-c2ccc(Cl)cc2)cs1	-5.8	12	.	4	?	7%	-1.6	3
Cc1ccccc1CN1C(=O)[C@H]2Cc3c([nH]c4ccccc34)C(C)(C)N2C1=O	1.9	6	-0.5	-2	0.1	.	-10	29
COc1ccc(N=Nc2[nH]c3ccc(C)cc3c2O)cc1	-0.2	-20	.	.	-0.9	-9%	0.1	-32
COc1ccc(NC(=O)/C(C#N)=C/C=C/c2ccco2)cc1	-0.3	-10	-17	-1	0.9	?	0.4	-46
O=C(O)c1ccc(CNCc2cc(Cl)ccc2O)cc1	3.8	.	1.8	-7	-1.3	.	.	.
C=CCSc1nnc(NC(=O)COc2ccc3ccccc3c2)s1	-4.5	-11	-5.0	-4	-0.3	-2%	-0.5	-24
O=C(O)CC1S/C(=N/N=C/C2CC=CCC2)NC1=O (stereo not given)	-3.4	-4	-1.3	2	0.1	-2%	?	-11
CCOC(=O)N1CCC(NC(=O)C(NS(=O)(=O)c2ccc3c(c2)CCN3C(=O)CC)C(C)C)CC1 (stereo not given)	-3.0	4	-0.7	3	0.8	6%	2.6	-12
O=C1NC(=O)c2cc(NC(=O)C3COc4ccccc4O3)ccc21 (stereo not given)	-0.1	-2	-2.3	.	-0.8	-2%	9.7	-28
CC(C)(C)C1=Nn2c(nnc2-c2ccco2)SC1	2.6	6	.	1	?	12%	1.4	4
CC/C(=C\C(=O)c1cccnc1)Nc1ccc(C)c(C)c1	1.6	5	.	-4	0.0	8%	1.9	-2
COc1ccc(S(=O)(=O)N2CCCCCC2)cc1C(=O)N(C)CC(=O)Nc1ccccc1Cl	2.1	-5	-5.6	-2	0.3	.	.	-5
CC(Sc1ccccc1)C(=O)Nc1ccccc1C(=O)N1CCOCC1 (stereo not given)	-5.9	1	.	-9	0.3	0%	-2.6	11
CCCCn1c(N)c(N(CC(C)C)C(=O)c2cc(-c3ccc(OC)c(OC)c3)nc3ccccc23)c(=O)[nH]c1=O	.	2	-0.9	-4	-0.8	6%	-1.3	-2
CC(C(=O)OCC(=O)c1ccc(Br)cc1)N1C(=O)C2C3CCC(C3)C2C1=O (stereo not given)	3.0	1	-0.2	-1	0.6	.	7.7	-8
COc1ccccc1NC1=NC2(CCCC2)N=C(N)N1	2.1	-5	.	.	0.0	8%	0.3	-3
N#Cc1c(NC(=S)NC(=O)c2ccccc2)sc2c1CCN(CCc1ccccc1)C2	2.3	-15	.	16	0.4	25%	157*	71*
N#Cc1nc(-c2ccco2)oc1N1CCN(c2cccc(Cl)c2)CC1	-2.5	-4	.	2	0.6	-1%	0.8	8
Clc1ccc(N2CCN(c3ncnc4c3oc3ccccc34)CC2)cc1	1.5	6	.	-5	-1.6	.	-5.3	-17
Cc1ccccc1NC(=S)/C(=C(\[O-])c1ccc(C)c([N+](=O)[O-])c1)[n+]1ccccc1	2.6	-5	.	-1	?	.	-0.9	-7
The list continues:
SMILES	LANA-H2A inh	Calb FLC	AF4-AF9 inh	Beta cell apopt	A1 inh	Vif A3G	RanGTP-Imp inh	T cruzi repl
CCOC(=O)/C(C#N)=C/c1cc(C)n(-c2ccc(Br)cc2)c1C	0.5	2	.	3	0.8	18%	-0.2	3
CC(=O)NS(=O)(=O)c1ccc(NC(=S)NC(=O)c2ccco2)cc1	-1.0	2	.	0	0.3	8%	0.4	-8
CCCc1cc(C(=O)NCc2cccs2)no1	0.9	4	-0.8	-1	-1.3	-4%	3.4	-4
Cn1c(SCC(=O)N2CCOCC2)nnc1-c1cccc(NC(=O)c2ccccc2F)c1	-0.3	17	-24	-6	-0.1	5%&-8%	8.4	-7
COc1cccc(-c2cccc(NC(=O)C3CCN(Cc4ccon4)CC3)c2)c1	2.5	0	-1.4	-8	0.8	.	9.5	17
C#CCOCCOCCOCCNc1nc(N2CCN(C(=O)[C@H]([C@@H](C)O)n3cc(CCCCN)nn3)CC2)nc(N2CCN(C(=O)[C@H](CCCCN)n3cc(CC(C)O)nn3)CC2)n1 (stereo not given in full)	2.1	.	6.2	-7	0.3	.	.	.
CC(=O)Oc1ccc(C(=O)Nc2ccc(S(=O)(=O)N3CCOCC3)cc2)cc1	-2.5	10	1.2	-11	-0.2	8%	?	-6
Cc1cnc(C(=O)Nc2ccccc2-c2ccc(C)o2)cn1	-1.3	51	.	.	-0.2	20%	3.1	1
CCOc1ccc(NS(=O)(=O)c2cc(C(=O)N(CC)CC(=O)NCc3cccs3)ccc2C)cc1	5.8	-4	-1.3	5	-0.8	6%	-3.1	-4
Cc1ccc(/C=N/n2c(COc3ccccc3)n[nH]c2=S)cc1	-6.3	-12	0.4	4	-0.2	-2%	3.4	-6
CCOC(=O)CSc1nc2c(sc(=S)n2Cc2ccco2)c(=O)n1-c1ccc(F)cc1	-5.6	32	.	-3	2.1	-4%	-0.6	17
O=C(Nc1ccc(C(=O)N2CCOCC2)cc1)Nc1ccc(Cl)cc1Cl	-3.1	16	-0.9	1	0.0	1%	-1.0	18
Cc1ccccc1N(CC(=O)N/N=C/c1ccccc1Cl)C(=O)c1ccccc1	-2.9	-3	.	-6	0.9	-3%	1.4	4
COc1cccc(C(C(=O)NCc2ccccc2)N(C(=O)c2csnn2)C2CC2)c1 (stereo not given)	5.7	-3	1.7	0	-0.1	.	-1.5	-12
O=C1CCC([N+](=O)[O-])C(c2cc3c(cc2Cl)OCO3)N1 (stereo not given)	-2.2	4	.	-8	0.0	.	3.5	-24
CCN(CC)CC#CC(C)(C)OC(C)=O	0.3	-3	.	1	0.2	-7%	9.7	0
O=C1C(Cl)=C(N2CCCCCC2)C(=O)N1c1ccc(Br)cc1	-0.3	1	11	7	-0.8	-1%	-4.2	2
CCC(Sc1nc2n[nH]c(C)c2c(=N)n1-c1ccc(C)c(Cl)c1)C(=O)N1CCOCC1 (stereo not given)	3.0	2	.	15	0.4	-1%	2.7	26
COc1ccc(CS(=O)(=O)/C(Cl)=C(/Cl)C(=O)Nc2ccc(OC)nc2)cc1	9.8	42	.	52	0.5	2%	1.9	22
CCOC(=O)c1ccc(NC2OC(=O)c3ccccc32)cc1 (stereo not given)	-1.0	.	.	-6	0.2	?	-1.6	-10
COc1ccc(NC(=O)c2ccc(NC(=O)c3ccco3)cc2)c(OC)c1	-5.4	6	2.0	3	-0.2	.	3.4	11
Cc1oc2cc3oc(=O)c(CCC(=O)N(C)CC(=O)O)c(C)c3cc2c1C	-1.3	-6	-3.4	3	-0.3	2%	0.5	-7
OCC12COC(c3ccccc3)N1C(c1ccccc1)OC2 (stereo not given)	-0.5	4	.	-6	0.1	1%	6.4	-8
O=C(C1CCCO1)N1CCN(Cc2nc3ccccc3c(=O)[nH]2)CC1 (stereo not given)	5.3	14	.	.	0.6	?	0.1	2
N#Cc1c(NC(=O)CN2CCN(C(=O)c3ccco3)CC2)sc2c1CCCCC2	-5.1	1	.	30	0.2	1%	9.7	8
(listing goes on)
SMILES	LANA-H2A inh	Calb FLC	AF4-AF9 inh	Beta cell apopt	A1 inh	Vif A3G	RanGTP-Imp inh	T cruzi repl
COc1ccc(C2=NCCc3cc(OC)c(OC)cc32)cc1OC	4.7	-2	.	3	-0.5	0%	2.0	-4
COc1ccc(OC)c(-n2c(=O)c3ccccc3c3ccccc3c2=O)c1	-1.2	-5	4.2	4	0.7	?	-3.6	-8
CC(C)C1C(c2ccccc2)NC(c2ccccc2)CC1(O)c1ccc(F)cc1 (stereo not given)	-1.0	5	3.6	.	0.3	.	11	17
CCOC(=O)c1c(C)[nH]c(C(C)=NNC(=O)Cn2nc(C)cc2C)c1C	0.0	.	-0.4	0	0.6	.	.	.
C[C@H](CO)N1C[C@H](C)[C@@H](CN(C)C(=O)Nc2ccccc2)Oc2c(NS(=O)(=O)c3cccs3)cccc2C1=O	-0.5	.	-5.6	-9	1.4	.	.	.
COc1cc(/C=N/N2CCOCC2)ccc1OC(=O)c1ccco1	7.7	-5	7.2	-3	-2.2	0%	-0.2	4
CC(=O)NC(CCCNC(=S)NC1CCCCC1)C(=O)O (stereo not given)	1.1	11	-1.1	-3	0.2	17%	-2.3	-19
O=C(Nc1ccccn1)c1ccc([N+](=O)[O-])o1	-1.1	53	.	-29	1.7	-1%	3.8	32
COc1ccc(CCNC(=O)C2CCCN(S(=O)(=O)c3cc(C)ccc3OC)C2)cc1OC (stereo not given)	9.3	14	-0.3	2	-0.3	11%	10	3
O=C(Nc1nc(-c2ccco2)c(-c2ccco2)s1)c1cnccn1	-3.8	.	-1.8	-1	-0.4	.	4.2	70*
O=C(O)c1ccc(/C=C2\CCCc3c2nc2ccccc2c3C(=O)O)cc1	-6.9	-1	-0.8	-13	0.1	.	1.8	-13
COc1ccc2ccccc2c1-c1csc(N)n1	1.7	-6	2.0	-7	1.5	5%	-2.0	10

A portion taken from the entries so far, for reference:
SMILES	LANA-H2A inh	Calb FLC	AF4-AF9 inh	Beta cell apopt	A1 inh	Vif A3G	RanGTP-Imp inh	T cruzi repl
COc1ccc(CCNC(=O)C2CCCN(S(=O)(=O)c3cc(C)ccc3OC)C2)cc1OC (stereo not given)	9.3	14	-0.3	2	-0.3	11%	10	3
O=C(Nc1nc(-c2ccco2)c(-c2ccco2)s1)c1cnccn1	-3.8	.	-1.8	-1	-0.4	.	4.2	70*
O=C(O)c1ccc(/C=C2\CCCc3c2nc2ccccc2c3C(=O)O)cc1	-6.9	-1	-0.8	-13	0.1	.	1.8	-13
COc1ccc2ccccc2c1-c1csc(N)n1	1.7	-6	2.0	-7	1.5	5%	-2.0	10

Screens from PubChem BioAssay.
